# Screens (PubChem BioAssay)
# Vaccinia inh = Vaccinia orthopox stage-specific inhibition; activity change (mCherry), % (concentration not given with the values); AID 1053133; Vaccinia-infected cells, mCherry/Venus stage reporter fluorescence; hits give low values; some inactives read as strong as hits; 89,000 compounds, 0.01% hits;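 active = mCherry past -33% and 40 or more points under the early reporter, replicates agreeing; inconclusive = past -33% without that gap or agreement; tested in A549 cells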;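 note: scaled between vehicle wells and reference inhibitor wells; 23 nL library stock went into each well; one replicate is shown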
# Vaccinia inh Venus = second read-out of Vaccinia inh, no call of its own (marks repeat the call); activity change (Venus), %; measured here: Venus reporter, other viral stage;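 negative = less Venus signal; first of two replicates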
# The depositor's hits bear a star; ? = inconclusive; nt = not tested or not shown. Only part of the results is shown (hit frequency here may not be typical).
SMILES,Vaccinia inh,Vaccinia inh Venus
CN1C(=O)c2cc(NS(=O)(=O)c3ccccc3Cl)ccc2OC[C@@H]2O[C@@H](CC(=O)O)CC[C@@H]21,-6,-1
O=C(C[C@@H]1CC[C@H]2[C@@H](COC[C@@H](O)CN2Cc2ccccc2)O1)N[C@H]1CCN(Cc2ccccc2)C1,-25,-15
COCC(=O)Nc1ccc2c(c1)C(=O)N(C)C[C@@H](OC)[C@H](C)CN(Cc1ccccc1C(=O)O)[C@H](C)CO2,7,4
C[C@H](CO)N1C[C@H](C)[C@@H](CN(C)Cc2ccncc2)Oc2ccc(NC(=O)Cc3cn(C)c4ccccc34)cc2C1=O,18,7
OC[C@@H]1[C@@H](c2ccc(C#CC3(O)CCCC3)cc2)[C@@H]2CN(Cc3ccccc3F)CCCCN12,-21,-13
CNC[C@@H]1Oc2ccc(NC(=O)Nc3ccc(OC)cc3)cc2CC(=O)N([C@H](C)CO)C[C@H]1C,9,9
C[C@@H]1CN([C@H](C)CO)C(=O)c2cc(C#CCN(C)C)cnc2O[C@@H]1CN(C)S(C)(=O)=O,24,11
COc1ccccc1CN1C[C@@H](C)[C@H](OC)CN(C)C(=O)c2ccc(NC(C)=O)cc2OC[C@@H]1C,-5,-3
O=C(C1CC1)N1CC(=O)N2[C@H](C1)[C@@H](c1ccc(-c3cccnc3)cc1)[C@@H]2CO,-10,-5
N#C[C@@H]1N[C@H](CO)[C@@H]1c1ccc(/C=C/c2ccccc2)cc1,15,10
Cc1ccccc1S(=O)(=O)N1CCCCN2[C@H](CO)[C@H](c3ccc(C#CCN(C)C)cc3)[C@@H]2C1,-15,-10
COc1ccc2c3c([nH]c2c1)[C@@H](CO)N(Cc1ccccn1)CC31CCN(C(=O)c2ccccn2)CC1,14,17
Cc1noc(C)c1S(=O)(=O)Nc1ccc2c(c1)C(=O)N([C@H](C)CO)C[C@@H](C)[C@H](CN(C)S(=O)(=O)c1cn(C)cn1)OCCCC[C@@H](C)O2,21,11
CC(C)NC(=O)Nc1ccc2c(c1)C(=O)N([C@H](C)CO)C[C@@H](C)[C@H](CN(C)S(=O)(=O)c1ccccc1)OCCCC[C@H](C)O2,5,-1
CO[C@@H]1CN(C)C(=O)c2ccc(NC(C)=O)cc2OC[C@H](C)N(CC2CC2)C[C@H]1C,3,5
COc1cccc(S(=O)(=O)N2C[C@@H](O)COC[C@H]3O[C@@H](CC(=O)N4CCCCC4)CC[C@@H]32)c1,-3,-5
OC[C@@H]1Nc2ccc(-c3cccc(F)c3)cc2[C@@H]2[C@H]1CCN2Cc1ccncc1,?,nt
O=C(C[C@@H]1C=C[C@@H](NC(=O)CCN2CCCCC2)[C@H](CO)O1)Nc1ccccc1,?,nt
CCCN1C[C@@H](C)[C@H](OC)CN(C)C(=O)c2cc(NS(=O)(=O)CC)ccc2OC[C@@H]1C,7,9
C/C=C/c1ccc([C@H]2[C@@H](CO)N(CC3CCCC3)C23CN(C(=O)CC2CC2)C3)cc1,?,nt
CCCNC(=O)C[C@@H]1CC[C@H]2[C@@H](COC[C@@H](O)CN2C(=O)Nc2c(C)noc2C)O1,-1,7
O=S(=O)(N[C@@H]1CC[C@@H](CCn2cc(C3CC3)nn2)O[C@@H]1CO)c1ccc(F)cc1,4,3
CC(C)NC(=O)NCC[C@@H]1CC[C@H](NC(=O)CCN2CCCCC2)[C@@H](CO)O1,9,3
COc1ccc2c3c([nH]c2c1)[C@H](CO)N(C(=O)c1ccc(F)cc1)CC31CN(C(=O)Nc2cccc(F)c2)C1,?,nt

# Sorted by SMILES length (high to low): part of the list above
SMILES,Vaccinia inh,Vaccinia inh Venus
O=C(C[C@@H]1CC[C@H]2[C@@H](COC[C@@H](O)CN2Cc2ccccc2)O1)N[C@H]1CCN(Cc2ccccc2)C1,-25,-15
OC[C@@H]1[C@@H](c2ccc(C#CC3(O)CCCC3)cc2)[C@@H]2CN(Cc3ccccc3F)CCCCN12,-21,-13
CCCNC(=O)C[C@@H]1CC[C@H]2[C@@H](COC[C@@H](O)CN2C(=O)Nc2c(C)noc2C)O1,-1,7
C/C=C/c1ccc([C@H]2[C@@H](CO)N(CC3CCCC3)C23CN(C(=O)CC2CC2)C3)cc1,?,nt

# Other results follow:
SMILES,Vaccinia inh,Vaccinia inh Venus
CC(C)NC(=O)Nc1ccc2c(c1)C(=O)N([C@H](C)CO)C[C@@H](C)[C@H](CN(C)C(=O)Nc1ccc(F)cc1)O2,4,12
COc1ccc(NC(=O)Nc2ccc3c(c2)C(=O)N([C@@H](C)CO)C[C@H](C)[C@H](CN(C)Cc2ccc(C(=O)O)cc2)OCCCC[C@@H](C)O3)cc1,17,10
CO[C@@H]1CN(C)C(=O)c2ccc(NC(C)=O)cc2OC[C@@H](C)N(CC2CCCCC2)C[C@@H]1C,-9,-3
C[C@@H]1CN([C@@H](C)CO)C(=O)c2cc(NC(=O)Nc3cccc4ccccc34)ccc2O[C@@H]1CN(C)CC1CCCCC1,?,nt
CC(C)NC(=O)N1CCCCN2[C@H](CO)[C@H](c3ccc(C#Cc4ccccc4F)cc3)[C@@H]2C1,?,nt
CC(=O)N[C@@H]1CC[C@@H](CCNC(=O)C2CCCCC2)O[C@@H]1CO,7,13
O=C(C[C@H]1C[C@H]2c3cc(NC(=O)NC4CCCC4)ccc3O[C@H]2[C@H](CO)O1)NC1CCCC1,7,4
C[C@H](CO)N1C[C@H](C)[C@@H](CN(C)Cc2ccccn2)Oc2ncc(C#CC3(O)CCCC3)cc2C1=O,3,-1
CCCN1C[C@@H](C)[C@H](OC)CN(C)C(=O)c2ccc(NC(=O)Nc3c(C)noc3C)cc2OC[C@@H]1C,7,7
C[C@@H]1CCCCO[C@H](CN(C)C(=O)CCC(F)(F)F)[C@@H](C)CN([C@@H](C)CO)C(=O)c2cc(NS(C)(=O)=O)ccc2O1,-5,-8
C[C@H](CO)N1C[C@H](C)[C@H](CN(C)CC2CCCCC2)Oc2ccc(NC(=O)CCCCCC(=O)Nc3ccccc3N)cc2CC1=O,?,nt
O=C(C[C@H]1CC[C@@H](NS(=O)(=O)c2ccc(F)cc2)[C@@H](CO)O1)N1CCN(c2ccccc2)CC1,-2,-4
N#Cc1cccc(-c2ccc([C@H]3[C@H]4CN(C(=O)Nc5ccc(F)cc5)CCCCN4[C@H]3CO)cc2)c1,-30,-29
C[C@@H]1CN([C@H](C)CO)C(=O)c2cccc(NC(=O)c3nc4ccccc4s3)c2O[C@H]1CN(C)CC1CC1,-21,-18
C[C@@H]1CN([C@H](C)CO)C(=O)c2cccc(NC(=O)c3cnccn3)c2O[C@H]1CN(C)Cc1ccc(C(F)(F)F)cc1,-12,-9
Cc1noc(C)c1NC(=O)N(C)C[C@@H]1Oc2ccc(NC(=O)CCC(F)(F)F)cc2CC(=O)N([C@@H](C)CO)C[C@@H]1C,1,-7
C[C@@H]1CN([C@H](C)CO)C(=O)c2cc(NS(C)(=O)=O)ccc2O[C@@H](C)CCCCO[C@@H]1CN(C)C(=O)CCCN(C)C,5,9
COc1ccc2c3c([nH]c2c1)[C@@H](CO)N(C(=O)NC(C)C)CC31CN(C(=O)c2cnccn2)C1,2,0
C[C@H](CO)N1C[C@H](C)[C@@H](CN(C)Cc2ccc(C(=O)O)cc2)Oc2ccc(NC(=O)C3CC3)cc2CC1=O,31,26
O=C(C[C@@H]1C[C@H]2c3cc(NS(=O)(=O)c4ccc(F)cc4)ccc3O[C@H]2[C@H](CO)O1)NCc1ccncc1,2,0
CNC[C@@H]1Oc2ccc(NS(C)(=O)=O)cc2CC(=O)N([C@@H](C)CO)C[C@H]1C,3,8
COCC#Cc1ccc([C@@H]2[C@@H](CO)N3C(=O)CN(C(=O)c4ccncc4)C[C@H]23)cc1,12,10
C[C@@H]1CN([C@@H](C)CO)S(=O)(=O)c2ccc(C#CC3CC3)cc2O[C@@H]1CN(C)Cc1ccccn1,?,nt
C[C@H](CO)N1C[C@H](C)[C@@H](CN(C)C(=O)Cc2ccccc2)OCCCC[C@H](C)Oc2ccc(NS(=O)(=O)c3cn(C)cn3)cc2C1=O,29,18

# Given with bars between the fields: part of the list above
SMILES | Vaccinia inh | Vaccinia inh Venus
C[C@@H]1CN([C@H](C)CO)C(=O)c2cccc(NC(=O)c3nc4ccccc4s3)c2O[C@H]1CN(C)CC1CC1 | -21 | -18
C[C@@H]1CN([C@H](C)CO)C(=O)c2cccc(NC(=O)c3cnccn3)c2O[C@H]1CN(C)Cc1ccc(C(F)(F)F)cc1 | -12 | -9
Cc1noc(C)c1NC(=O)N(C)C[C@@H]1Oc2ccc(NC(=O)CCC(F)(F)F)cc2CC(=O)N([C@@H](C)CO)C[C@@H]1C | 1 | -7

# As entered above.
# Vaccinia inh, `COCC#Cc1ccc([C@@H]2[C@@H](CO)N3C(=O)CN(C(=O)c4ccncc4)C[C@H]23)cc1` reads 12
# Vaccinia inh, `O=C(C[C@@H]1C[C@H]2c3cc(NS(=O)(=O)c4ccc(F)cc4)ccc3O[C@H]2[C@H](CO)O1)NCc1ccncc1` reads 2

# (cont.)
SMILES,Vaccinia inh,Vaccinia inh Venus
C[C@H]1CN([C@@H](C)CO)C(=O)c2cc(NC(=O)Nc3ccc4c(c3)OCO4)ccc2O[C@@H]1CN(C)C(=O)Nc1ccc(C(F)(F)F)cc1,10,9
C[C@@H]1CN([C@H](C)CO)C(=O)c2cc(-c3ccccc3)cnc2O[C@H]1CN(C)C(=O)NC1CCCC1,1,-3
CN1C(=O)c2cc(NC(=O)C3CCCCC3)ccc2OC[C@H]2O[C@@H](CC(=O)NCc3ccccc3F)CC[C@@H]21,6,-4
COC(=O)C[C@@H]1CC[C@@H]2[C@@H](COc3ccc(NC(=O)c4cc(C)on4)cc3C(=O)N2C)O1,-3,-1
COc1ccc(NC(=O)Nc2cccc3c2O[C@@H](CN(C)Cc2ccc4c(c2)OCO4)[C@@H](C)CN([C@@H](C)CO)C3=O)cc1,-20,-17
O=C(C[C@H]1CC[C@@H]2[C@H](COC[C@H](O)CN2C(=O)Nc2ccccc2)O1)NCc1ccccc1F,2,-5
C[C@H](CO)N1C[C@H](C)[C@H](CN(C)CC2CCCCC2)Oc2ccc(NC(=O)c3ccncc3)cc2C1=O,16,10
C[C@@H]1CN([C@H](C)CO)C(=O)c2cc(C#Cc3ccccc3)cnc2O[C@H]1CN(C)C(=O)CN(C)C,-7,-11
COc1ccc(-c2cn(CC[C@@H]3CC[C@H](NC(=O)CCN4CCCCC4)[C@H](CO)O3)nn2)cc1,3,13
COc1ccc(CN(C)C[C@@H]2OCCCC[C@@H](C)Oc3ccc(NC(=O)Nc4cccc5ccccc45)cc3C(=O)N([C@H](C)CO)C[C@H]2C)cc1,-22,-11
COCCNC(=O)[C@H]1[C@H](CO)[C@H]2Cn3c(cccc3=O)[C@@H]1N2Cc1cc(F)ccc1F,-1,7
CCCNC(=O)C[C@@H]1CC[C@H]2[C@H](COc3ccc(NC(=O)c4cccc(C(F)(F)F)c4)cc3C(=O)N2C)O1,-11,-10
COc1ccc(CN(C)C[C@H]2OCCCC[C@H](C)Oc3ccc(NC(=O)NC4CCCCC4)cc3C(=O)N([C@@H](C)CO)C[C@H]2C)cc1,?,nt
CCC(=O)N1CC2(CCN(C(=O)CN3CCOCC3)CC2)c2c([nH]c3cc(OC)ccc23)[C@H]1CO,7,1
CNC[C@H]1Oc2ccc(NC(=O)Cc3cn(C)c4ccccc34)cc2C(=O)N([C@@H](C)CO)C[C@H]1C,15,6
COc1ccccc1-c1cnc2c(c1)C(=O)N([C@@H](C)CO)C[C@H](C)[C@H](CN(C)Cc1ccc(C(=O)O)cc1)O2,15,-3
Cc1ccc(-c2ccc([C@H]3[C@H](CO)N4CCCCN(C(=O)c5ccncc5)C[C@@H]34)cc2)cc1,1,-20
O=S(=O)(c1ccc(F)cc1)N1CC[C@H]2[C@H](CO)Nc3ccc(-c4ccccc4F)cc3[C@H]21,-12,-5
O=C(Cc1ccccn1)N[C@@H]1CC[C@H](CCNS(=O)(=O)c2cccc(F)c2)O[C@H]1CO,6,14
C[C@@H]1CN([C@@H](C)CO)C(=O)Cc2cc(NC(=O)C3CCCCC3)ccc2O[C@@H]1CN(C)Cc1ccc(C(F)(F)F)cc1,?,nt
COc1ccc2c3c(n(C)c2c1)[C@@H](CO)N(C)CC31CN(CC2CC2)C1,3,-2
CO[C@@H]1CN(C)C(=O)c2cc(NC(=O)C3CCOCC3)ccc2OC[C@@H](C)N(CC2CC2)C[C@@H]1C,8,15
COc1ccc(S(=O)(=O)Nc2ccc3c(c2)C(=O)N([C@H](C)CO)C[C@@H](C)[C@@H](CN(C)C(=O)c2ccncc2)OCCCC[C@H](C)O3)cc1,20,4
C[C@@H]1CN([C@@H](C)CO)C(=O)Cc2cc(NC(=O)Nc3ccc4c(c3)OCO4)ccc2O[C@H]1CN(C)C(=O)Nc1ccc2c(c1)OCO2,14,10
CCCC#Cc1cnc2c(c1)C(=O)N([C@H](C)CO)C[C@H](C)[C@@H](CN(C)C(=O)Cc1ccncc1)O2,6,4
Cc1ccc(S(=O)(=O)N[C@@H]2C=C[C@H](CC(=O)N3CCN(c4ccccc4)CC3)O[C@H]2CO)cc1,-11,-2
CN(C)CC(=O)N1CCCCN2[C@H](CO)[C@@H](c3ccc(/C=C/c4ccccc4)cc3)[C@@H]2C1,?,nt
Cc1noc(C)c1NC(=O)N(C)C[C@H]1Oc2c(NS(=O)(=O)c3cn(C)cn3)cccc2C(=O)N([C@H](C)CO)C[C@H]1C,7,2
CO[C@H]1CN(C)C(=O)c2cc(NC(C)=O)ccc2OC[C@H](C)N(Cc2cccc(F)c2)C[C@@H]1C,-14,-11
COC(=O)[C@H]1[C@H](CO)[C@H]2Cn3c(ccc(/C=C/c4ccccc4)c3=O)[C@@H]1N2Cc1ccccc1F,-11,-3
O=C(O)C[C@H]1CC[C@@H](NC(=O)c2ccccc2F)[C@H](CO)O1,6,2
CCC(=O)N[C@H]1CC[C@H](CCn2cc(-c3cccc(OC)c3)nn2)O[C@@H]1CO,-1,3
CCCNC(=O)N1CC2(CCN(C(=O)CN(C)C)CC2)c2c(n(C)c3cc(OC)ccc23)[C@@H]1CO,11,5
